Screening data deposited in PubChem BioAssay by Broad Institute.
DUX4 txn inh – blocks DUX4-driven transcriptional activation; 293T-iDUX4 ZSCAN4-Gaussia luciferase reporter, 24 h; hits give low values; activity change, negative = inhibition, % (concentration not given with the values); 0.8% of 37,000 active;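 active means -10% or lower and over 25 points stronger than a control reporter; inconclusive means -10% or lower with a smaller gap; inactive means above -10%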;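 further: 0% = median of neutral control wells and -100% = median of positive control wells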
DUX4 txn inh difference – recorded beside DUX4 txn inh, whose call it bears; Gaussia minus Italica difference, %; measured here: selective DUX4 reporter inhibition;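 worked out from the two reporters; negative = selective loss of the DUX4 reporter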
DUX4 txn inh control – second read-out of DUX4 txn inh, no call of its own (marks repeat the call); activity change, negative = inhibition, %; measured here: Italica tet-on control reporter;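 0 = neutral control and -100 = positive control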
Starred values were filed as active, the others as inactive; ? = inconclusive; · = not tested or not shown. The list is partial; rates above refer to the full screens.

SMILES	DUX4 txn inh	DUX4 txn inh difference	DUX4 txn inh control
CN1C(=O)c2cc(NC(=O)Cc3cccs3)ccc2OC[C@H]2O[C@@H](CC(=O)N[C@H]3CCN(Cc4ccccc4)C3)CC[C@@H]21	0.0	-2.9	2.9
COc1ccc2c3c([nH]c2c1)[C@@H](CO)N(C(=O)C1CC1)CC31CCN(C(=O)c2ccncc2)CC1	20.2	-5.4	25.6
CCCNC(=O)C[C@H]1CC[C@@H]2[C@@H](COc3ccc(NC(=O)c4cccs4)cc3C(=O)N2C)O1	-2.0	-4.8	2.9
COc1ccccc1-c1ccc2c(c1)[C@H]1[C@H](CCN1S(=O)(=O)c1ccccc1OC)[C@@H](CO)N2	?	·	·
N#C[C@H]1[C@H](c2ccc(C#Cc3ccccc3F)cc2)[C@@H](CO)N1C(=O)c1cccnc1	1.8	-1.8	3.7
O=C(NCC[C@@H]1CC[C@H](NC(=O)c2ccncc2)[C@H](CO)O1)Nc1ccc(Cl)cc1	0.7	-5.3	6.0
CNC[C@H]1OCCCC[C@H](C)Oc2ccc(NC(=O)c3ccncc3)cc2C(=O)N([C@H](C)CO)C[C@@H]1C	4.7	11.7	-6.9
CO[C@H]1CN(C)C(=O)c2cc(NC(=O)c3ccccc3F)ccc2OC[C@@H](C)NC[C@H]1C	7.2	-1.1	8.2
C[C@@H]1CN([C@@H](C)CO)C(=O)CCCn2cc(nn2)CO[C@H]1CN(C)C(=O)Nc1ccc(N2CCCCC2)cc1	1.4	-3.6	5.0
O=C(C[C@H]1CC[C@H]2[C@@H](COC[C@@H](O)CN2Cc2cc(F)ccc2F)O1)NCc1ccc(Cl)cc1	?	·	·
COC(=O)C[C@H]1CC[C@@H]2[C@H](COC[C@H](O)CN2CCC(F)(F)F)O1	3.9	-1.5	5.4
C[C@@H]1CN([C@@H](C)CO)C(=O)CCCn2cc(nn2)CO[C@@H]1CN(C)S(=O)(=O)c1ccc(F)cc1	-0.8	-3.6	2.8
COc1ccc(S(=O)(=O)Nc2ccc3c(c2)C(=O)N([C@@H](C)CO)C[C@@H](C)[C@H](CN(C)C(=O)CCC(F)(F)F)OCCCC[C@@H](C)O3)cc1	4.2	3.0	1.2
C/C=C/c1cnc2c(c1)C(=O)N([C@@H](C)CO)C[C@@H](C)[C@H](CN(C)CC1CCOCC1)O2	-2.6	-8.7	6.1
CO[C@@H]1CN(C)C(=O)c2ccc(NS(C)(=O)=O)cc2OC[C@H](C)N(Cc2ccccc2)C[C@@H]1C	6.3	6.1	0.2
O=C(C[C@H]1CC[C@@H]2[C@H](COC[C@@H](O)CN2S(=O)(=O)c2ccc(Cl)cc2)O1)NCc1ccncn1	3.0	0.4	2.6
O=C(c1ccc2c(c1)OCO2)N1CC[C@@H]2[C@@H](CO)Nc3ccc(-c4ccc(F)cc4)cc3[C@@H]21	?	·	·
O=C(Nc1ccc2c(c1)[C@H]1C[C@H](CC(=O)N3CCCCC3)O[C@H](CO)[C@H]1O2)NC1CCCCC1	-3.4	-8.5	5.2
COC(=O)N(C)C[C@H]1OCc2ccccc2-c2ccccc2C(=O)N([C@@H](C)CO)C[C@@H]1C	15.1	17.0	-1.9
C[C@H](CO)N1C[C@H](C)[C@@H](CN(C)C(=O)c2cnccn2)Oc2ncc(-c3cccc(F)c3)cc2C1=O	-3.9	-0.8	-3.1
COC(=O)c1ccc(CN2CC(=O)N3[C@H](CO)[C@H](c4ccc(-c5cccnc5)cc4)[C@H]3C2)cc1	9.4	3.5	5.9
C[C@@H]1CCCCO[C@H](CN(C)S(=O)(=O)c2cccs2)[C@@H](C)CN([C@@H](C)CO)C(=O)c2cc(N(C)C)ccc2O1	2.9	0.9	2.0
C[C@@H]1CN([C@H](C)CO)C(=O)c2cc(C#CC3CCCC3)cnc2O[C@H]1CN(C)C(=O)Cc1ccccn1	5.3	2.4	2.9
COC(=O)C[C@H]1CC[C@@H](N)[C@@H](CO)O1	-6.6	-8.7	2.1
C[C@@H]1CN([C@@H](C)CO)C(=O)c2cc(NC(=O)Nc3ccc4c(c3)OCO4)ccc2O[C@@H](C)CCCCO[C@H]1CN(C)S(=O)(=O)c1ccccc1	2.7	2.8	-0.1

3 entries picked at random from those above:
SMILES	DUX4 txn inh	DUX4 txn inh difference	DUX4 txn inh control
COc1ccc2c3c([nH]c2c1)[C@@H](CO)N(C(=O)C1CC1)CC31CCN(C(=O)c2ccncc2)CC1	20.2	-5.4	25.6
C[C@@H]1CN([C@H](C)CO)C(=O)c2cc(C#CC3CCCC3)cnc2O[C@H]1CN(C)C(=O)Cc1ccccn1	5.3	2.4	2.9
COc1ccc(S(=O)(=O)Nc2ccc3c(c2)C(=O)N([C@@H](C)CO)C[C@@H](C)[C@H](CN(C)C(=O)CCC(F)(F)F)OCCCC[C@@H](C)O3)cc1	4.2	3.0	1.2

Next records:
SMILES	DUX4 txn inh	DUX4 txn inh difference	DUX4 txn inh control
OC[C@H]1[C@H](c2ccc(C#CC3(O)CCCC3)cc2)[C@H]2CN(Cc3ccncc3)CCCCN21	9.9	6.2	3.7
O=C(Nc1cc(F)ccc1F)N1CC(=O)N2[C@H](CO)[C@@H](c3ccc(/C=C/c4ccccc4)cc3)[C@@H]2C1	-4.2	-1.6	-2.5
COc1ccc(S(=O)(=O)Nc2ccc3c(c2)C(=O)N([C@@H](C)CO)C[C@@H](C)[C@@H](CN(C)Cc2ccc(C(F)(F)F)cc2)OCCCC[C@@H](C)O3)cc1	0.2	-3.2	3.5
CO[C@H](CN(C)C(=O)C1CCOCC1)[C@H](C)CN([C@H](C)CO)S(=O)(=O)c1ccccc1	-2.7	-2.1	-0.6
COc1ccc(C(=O)N2C[C@H]3[C@@H](c4ccccc42)[C@H](CO)N3Cc2ccccc2Cl)cc1	4.9	3.5	1.4
CNC[C@@H]1OCCCC[C@@H](C)Oc2ccc(NS(=O)(=O)c3cccs3)cc2C(=O)N([C@H](C)CO)C[C@@H]1C	0.0	-3.0	2.9
O=C(C[C@@H]1C=C[C@@H](NC(=O)c2ccncc2)[C@H](CO)O1)NCC1CC1	-8.2	-8.3	0.1
O=C(C[C@H]1C[C@@H]2c3cc(NC(=O)C4CCC4)ccc3O[C@@H]2[C@H](CO)O1)NCCc1ccccc1	-4.2	-8.9	4.7
C[C@@H](O)C#Cc1ccc([C@H]2[C@H](CO)N3CCCCN(CC4CC4)C[C@@H]23)cc1	5.8	6.2	-0.4
C[C@H](CO)N1C[C@H](C)[C@@H](CN(C)CC2CCCCC2)Oc2ccc(NC(=O)CCN3CCOCC3)cc2C1=O	-3.7	-4.6	1.0
N#Cc1ccc(-c2cccc(-c3nc(C(=O)O)cc4c3[C@H](CCO)N(CC3CCOCC3)C4)c2)cc1	-3.3	-5.5	2.2
COc1ccc(S(=O)(=O)N(C)C[C@H]2Oc3ccc(NC(=O)CCCCCC(=O)Nc4ccccc4N)cc3C(=O)N([C@H](C)CO)C[C@@H]2C)cc1	2.5	-0.4	2.9
C[C@@H]1CN([C@H](C)CO)C(=O)CCCn2cc(nn2)CO[C@H]1CN(C)C(=O)Nc1ccc(-c2cccs2)cc1	4.0	6.4	-2.3
C[C@H]1CN([C@@H](C)CO)C(=O)c2ccccc2-c2ccccc2CO[C@H]1CN(C)C(=O)[C@@H](Cc1ccccc1)N(C)C	-8.0	-2.0	-6.0
COc1ccc2c3c([nH]c2c1)[C@@H](CO)N(Cc1ccccc1)CC31CCN(CC2CC2)CC1	?	·	·
COc1ccc2c3c([nH]c2c1)[C@@H](CO)N(Cc1ccccn1)CC31CN(C(C)=O)C1	16.7	6.2	10.5
O=C(C[C@H]1CC[C@@H](NC(=O)Nc2ccc(C(F)(F)F)cc2)[C@H](CO)O1)NCc1cccc(F)c1	-4.4	-1.5	-2.9
COc1ccc(S(=O)(=O)Nc2ccc3c(c2)C(=O)N([C@H](C)CO)C[C@@H](C)[C@@H](CN(C)C(=O)c2ccncc2)OCCCC[C@@H](C)O3)cc1	0.9	-4.3	5.3
COCC(=O)Nc1ccc2c(c1)C(=O)N(C)[C@@H]1CC[C@@H](CC(=O)NCc3ccccc3Cl)O[C@H]1CO2	5.4	-1.4	6.8
CN1[C@@H](CO)[C@@H]2c3ccccc3N(C(=O)Nc3ccccc3F)C[C@@H]21	-4.6	-2.4	-2.2
C[C@@H](NC(=O)C[C@H]1CC[C@H]2[C@@H](COc3ccc(NC(=O)C4CCOCC4)cc3C(=O)N2C)O1)c1ccccc1	1.9	2.1	-0.2
CCCN1C[C@H](C)[C@H](OC)CN(C)C(=O)c2cc(NC(=O)C3CCC3)ccc2OC[C@H]1C	-0.9	2.5	-3.5
CC(C)NC(=O)Nc1ccc2c(c1)C(=O)N([C@H](C)CO)C[C@H](C)[C@H](CN(C)CC1CC1)O2	-0.6	-6.2	5.6
CCCNC(=O)N1[C@@H](CO)[C@@H](c2ccccc2)C12CN(C(=O)c1cccnc1)C2	7.6	4.3	3.3
C/C=C/c1ccc([C@@H]2[C@H](CO)N(C(C)=O)C23CN(C(=O)c2cnccn2)C3)cc1	6.9	-3.2	10.1

Whole records as entered above.
`C[C@@H](NC(=O)C[C@H]1CC[C@H]2[C@@H](COc3ccc(NC(=O)C4CCOCC4)cc3C(=O)N2C)O1)c1ccccc1` in the list: DUX4 txn inh = 1.9; DUX4 txn inh difference = 2.1; DUX4 txn inh control = -0.2
`N#Cc1ccc(-c2cccc(-c3nc(C(=O)O)cc4c3[C@H](CCO)N(CC3CCOCC3)C4)c2)cc1` in the list: DUX4 txn inh = -3.3; DUX4 txn inh difference = -5.5; DUX4 txn inh control = 2.2

Following part.
SMILES	DUX4 txn inh	DUX4 txn inh difference	DUX4 txn inh control
CC(C)(C)[S@@](=O)N1Cc2cc(C(=O)O)nc(-c3cccc(-c4ccc(F)cc4)c3)c2[C@H]1CCO	4.8	-1.1	5.8
C/C=C/c1ccc([C@@H]2[C@@H](CO)N(CCC(F)(F)F)C23CN(C(=O)CC2CC2)C3)cc1	-2.9	-9.6	6.6
Cc1ccccc1S(=O)(=O)N1CC[C@@H]2[C@H]1c1cc(-c3cccc(C#N)c3)ccc1N(C)[C@H]2CO	?	·	·
CCCNC(=O)Nc1ccc2c(c1)C(=O)N(C)C[C@H](OC)[C@@H](C)CN(C(=O)C1CCCCC1)[C@@H](C)CO2	2.1	-2.3	4.4
COc1ccc2c3c(n(C)c2c1)[C@@H](CO)N(C)CC31CCN(S(=O)(=O)c2cccc(F)c2)CC1	?	·	·
O=C(Cc1cccnc1)N1CC(=O)N2[C@H](C1)[C@@H](c1ccc(C#CC3CCCCC3)cc1)[C@@H]2CO	?	·	·
COC(=O)C[C@H]1C[C@@H]2c3cc(NC(=O)Cc4ccncc4)ccc3O[C@@H]2[C@@H](CO)O1	3.0	1.2	1.8
O=C(C[C@H]1C[C@H]2c3cc(NC(=O)CC4CC4)ccc3O[C@H]2[C@H](CO)O1)NCc1cccc(F)c1	-2.1	-0.5	-1.6
CC(C)(C)[S@](=O)N1Cc2cc(C(=O)NCc3ccncc3)nc(-c3cccc(-c4ccncc4)c3)c2[C@@H]1CCO	-2.0	-2.2	0.2
C/C=C/c1ccc([C@@H]2[C@H](CO)N(C(=O)CC)[C@H]2CNC(=O)c2ccncc2)cc1	1.6	-0.1	1.8
CC(=O)N1[C@H](CO)[C@@H](c2ccccc2)[C@@H]1CN(CC(C)C)C(=O)c1ccccn1	-1.5	-4.0	2.5
CCCNC(=O)Nc1ccc2c(c1)OC[C@@H](C)N(CCC(F)(F)F)C[C@H](C)[C@@H](OC)CN(C)C2=O	0.4	1.4	-0.9
CO[C@H]1CC[C@H]2CCOc3ccc(C#N)cc3C(=O)N(C)CC3(CCCCC3)CC(=O)N(C)C[C@H]1O2	4.2	2.0	2.2
CN1C(=O)c2cc(NC(=O)c3ccc(F)c(F)c3)ccc2OC[C@H]2O[C@@H](CC(=O)N3CCCCC3)CC[C@@H]21	2.6	-0.4	3.0
CO[C@H](C(=O)N(C)C[C@@H]1OCc2ccccc2-c2ccccc2C(=O)N([C@H](C)CO)C[C@H]1C)c1ccccc1	-4.8	-5.7	1.0
O=C(C1CCC1)N1CC[C@@H]2[C@@H](CO)Nc3ccc(-c4cccc(F)c4)cc3[C@@H]21	11.0	0.3	10.6
COCCNC(=O)C[C@H]1C[C@@H]2c3cc(N(C)C)ccc3O[C@@H]2[C@H](CO)O1	5.6	5.2	0.4
O=C(Nc1ccccc1)[C@H]1[C@H](CO)[C@H]2Cn3c(cccc3=O)[C@@H]1N2Cc1ccncc1	-3.4	-6.2	2.8
CC(C)NC(=O)N1[C@H](C#N)[C@@H](c2ccc(C#CC3CCCC3)cc2)[C@@H]1CO	-0.8	1.2	-2.1
CC(C)COC(=O)N(C)C[C@H]1OCc2cnnn2CCCC(=O)N([C@@H](C)CO)C[C@H]1C	-1.8	-2.6	0.8
CCCNC(=O)N1[C@@H](CO)[C@@H](c2ccccc2)C12CN(CCC(F)(F)F)C2	?	·	·
N#C[C@@H]1[C@@H](c2ccccc2)[C@@H](CO)N1C(=O)c1cc(Cl)cc(Cl)c1	-2.3	-1.4	-0.9
CCCNC(=O)N(C)C[C@@H]1[C@@H](c2ccccc2)[C@H](CO)N1C(=O)c1ccccc1	0.2	3.3	-3.1
CN1c2ccc(Br)cc2[C@@H]2[C@@H](CCN2C(=O)Cc2ccccc2)[C@H]1CO	3.1	-5.5	8.6
COc1ccc(-c2ccc3c(c2)[C@H]2[C@H](CCN2S(=O)(=O)c2ccccc2C)[C@@H](CO)N3)cc1	-6.9	-10.8	3.9
Cc1ccc(-c2ccc([C@H]3[C@@H](CO)N4C(=O)CN(C(=O)c5ccncc5)C[C@H]34)cc2)cc1	12.5	8.2	4.2

Part of the list above in order of heavy-atom count, largest number first:
SMILES	DUX4 txn inh	DUX4 txn inh difference	DUX4 txn inh control
CO[C@H]1CC[C@H]2CCOc3ccc(C#N)cc3C(=O)N(C)CC3(CCCCC3)CC(=O)N(C)C[C@H]1O2	4.2	2.0	2.2
O=C(C1CCC1)N1CC[C@@H]2[C@@H](CO)Nc3ccc(-c4cccc(F)c4)cc3[C@@H]21	11.0	0.3	10.6
COCCNC(=O)C[C@H]1C[C@@H]2c3cc(N(C)C)ccc3O[C@@H]2[C@H](CO)O1	5.6	5.2	0.4
